Screens (PubChem BioAssay)
D2 ag: agonists of human D2 dopamine receptor (beta-arrestin) | activation, % (concentration not given with the values) | AID 624465 | DiscoveRx PathHunter D2 beta-arrestin, luminescence, 90 min; 100% = 57 uM dopamine signal | actives 0.084% (n = 360,000); in the data active = activation above about 40%; inconclusive = about 15% to 40%; inactive = below about 15%; also: compound concentration not given in the record; the text of the record calls up to 30% inactive
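DiscoveRx PathHunter D2 beta-arrestin cells (2,100/well) attached overnight, then compound-stimulated 90 min at 37 C in HBSS/10 mM HEPES/0.1% Tween-20 buffer; beta-galactosidase complementation read by luminescence after 1 h at ambient temperature. Dopamine 57 uM final (EC100) as control.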
Six1-Eya2 blk: blocks human Six1 binding to Eya2; Q15475+O00167; AlphaScreen GST-Six1/His-Eya2 binding, biochemical; hits give low values; control for the full effect not named in the record; activity change, % (concentration not given with the values); actives 0.56% (n = 360,000); AID 651725; in the data active = activity change below about -65%; inconclusive = about -30% to -65%; inactive = above about -30%; also: % is scaled to controls: 0 for no effect and ±100 for the full control effect
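Six1/Eya2 binding was read as AlphaScreen signal after compounds were pinned into GST-Six1 plus His-tagged Eya2 (5X stock 250/500 nM) in pH 8.0 Tris/NaCl/TCEP buffer, beads added, then incubated 1 h, 37 C, dark.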
D2 PAM: positive allosteric modulators of human D2 dopamine receptor; DiscoveRx D2 beta-arrestin cells, luminescence, 90 min; 100% = 57 uM dopamine signal; potentiation, % (no concentration beside the values); actives 0.23% (n = 360,000); active = potentiation of 50% or more; inconclusive = 30% to 50%; inactive = 30% or less;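 also: compound concentration not given in the record; tested on top of an EC20 dose of dopamine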
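PathHunter D2 cells, attached overnight at 37 deg C, received compound in DMSO plus dopamine at EC20 (50 nM final) for 90 min at 37 deg C. Beta-arrestin recruitment was read as luminescence after 1 h with detection reagent at ambient temperature.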
CtBP-E1A inh: CtBP/E1A binding inhibition | AID 651724 | actives 0.49% (n = 340,000) | AlphaScreen GST-E1A/His-CtBP binding, 1536-well; hits give low values; control for the full effect not named in the record | activity change, % (concentration not given with the values); in the data active means activity change below about -65%; inconclusive means about -30% to -65%; inactive means above about -30%; also: % is scaled to controls: 0 for no effect and ±100 for the full control effect
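GST-E1A and His-tagged CtBP (125 nM each as 5X stock) were preincubated with pin-transferred compound for 2 h at 37 °C in the dark, then glutathione donor and nickel acceptor beads were added for 1 h before AlphaScreen reading.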
PINK1 expr mod: changes PINK1 expression; PINK1 immunofluorescence, high-content cytometry, 24 h; actives 0.2% (n = 410,000); AID 624263; Potency, µM (titrated, usually from 76.6 µM), for inactives: at the highest dose activation (PINK1 increase), hits mostly activators; active = well fitted activation curve with a large enough effect; inconclusive = small, poorly fitted or top-dose-only effect; inactive = flat fitted curve, though single readings scatter; cell line not stated here;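 also: potency is read from the fitted curve at half-maximal effect; % of control where 0% means no effect; nearly all actives have a fitted effect of over 65% in size; a mitochondrial uncoupler was the plate control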
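PINK1 protein, normally rapidly degraded, was detected by immunofluorescence after 24 hour compound treatment of a stable cell line. Titration data (5 concentrations) came from laser-scanning cytometry, with CCCP-treated wells as controls.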
Sfp inh: inhibitors of Bacillus subtilis Sfp phosphopantetheinyl transferase. Biochemical Sfp PPTase activity, qHTS. AID 1490. Potency, µM, inactives show max response, negative = inhibition, most hits filed as inhibitors. actives 3.5% (n = 310,000); active = well fitted inhibition curve with a large enough effect; inconclusive = small, poorly fitted or top-dose-only effect, or another doubt; inactive = no such curve, though single readings can be large or run the other way;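 also: the enzyme is Sfp with the accession as filed and its product quenches rhodamine fluorescence; potency is read from the fitted curve at half-maximal effect; 0% = enzyme reaction without inhibitor and -100% = no enzyme wells; top concentration of the series not given in the record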
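With Hepes-Na pH 7.6 buffer containing 10 mM MgCl2, Sfp (15 nM) modified BHQ-2-YbbR (12.5 uM) using rhodamine-CoA (5 uM). Two reads 30 minutes apart at 525/598 nm yielded each well's rate.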
TRPV1 PAM: enhances activation of the human vanilloid receptor TRPV1 | Q8NER1 | TRPV1-expressing cells, Fluo-8 calcium influx, capsaicin EC20 potentiation; host cell line not named in the record; control for the full effect not named in the record | potentiation, % at 8.33 µM | actives 0.02% (n = 320,000) | AID 540277; active means potentiation above 80%; inconclusive means 30% to 80%; inactive means below 30%; also: 0% is about no effect
Target sequence (Q8NER1 whole entry, looked up): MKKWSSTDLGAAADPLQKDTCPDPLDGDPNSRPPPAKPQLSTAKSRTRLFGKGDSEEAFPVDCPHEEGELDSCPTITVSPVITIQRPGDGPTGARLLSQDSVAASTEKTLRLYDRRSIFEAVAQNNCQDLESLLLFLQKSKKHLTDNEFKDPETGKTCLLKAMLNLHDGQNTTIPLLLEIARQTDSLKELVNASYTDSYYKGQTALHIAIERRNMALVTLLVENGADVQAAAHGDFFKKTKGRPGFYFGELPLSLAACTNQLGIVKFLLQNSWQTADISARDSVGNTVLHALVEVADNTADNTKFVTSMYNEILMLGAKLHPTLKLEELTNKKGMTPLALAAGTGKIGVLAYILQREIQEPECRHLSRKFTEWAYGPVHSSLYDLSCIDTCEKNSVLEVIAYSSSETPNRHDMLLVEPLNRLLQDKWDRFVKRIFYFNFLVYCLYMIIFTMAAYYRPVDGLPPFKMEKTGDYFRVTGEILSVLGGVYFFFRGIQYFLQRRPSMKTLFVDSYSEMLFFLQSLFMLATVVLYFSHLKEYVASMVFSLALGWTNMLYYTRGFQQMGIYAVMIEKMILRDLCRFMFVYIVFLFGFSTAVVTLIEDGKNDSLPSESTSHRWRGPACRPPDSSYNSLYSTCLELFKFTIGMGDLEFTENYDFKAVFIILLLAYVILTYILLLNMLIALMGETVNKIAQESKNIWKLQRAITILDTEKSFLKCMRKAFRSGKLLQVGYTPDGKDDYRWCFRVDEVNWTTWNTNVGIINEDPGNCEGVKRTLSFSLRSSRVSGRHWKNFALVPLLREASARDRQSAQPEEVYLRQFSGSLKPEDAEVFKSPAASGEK
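Cells expressing TRPV1 were dye-loaded with Fluo-8 and read kinetically: 10 s baseline, 3 min after compound (agonist portion), then 2 min after EC20 capsaicin (allosteric enhancer portion). Calcium-bound dye fluorescence at 480/520 nm.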
* hit, by the source's call; ? = inconclusive; / = no result given; [ ] = remark or other dose.

SMILES	D2 ag	Six1-Eya2 blk	D2 PAM	CtBP-E1A inh	PINK1 expr mod	Sfp inh	TRPV1 PAM
CC1(C)CC(=O)C(N=Nc2cc(Cl)c(Cl)c(Cl)c2)=C(O)C1	-4.3	-10	-26	-2	1.3%	-1%	7
O=C(O)C=C1C2CC3CC(C2)CC1C3	-2.7	5	-2	9	1.2%[38.3 µM]	8%	11
CC1(c2ccccc2)CC(C)(C)N(C(=O)CSc2nnc(N)s2)c2ccccc21 (centres undefined)	-1.5	-14	10	0	-2.6%	0%	-32
CS(=O)(=O)N(Cc1ccco1)CC(O)Cn1cc(C=O)c2ccccc21 (centres undefined)	-1.3	-11	5	-7	3.5%[38.3 µM]	13%	-7
CN1CCC(N2CCCC(C(=O)O)C2)CC1 (centres undefined)	-1.2	4	-12	-1	1.1%[38.3 µM]	4%	-2
CCCc1cc(=O)n2[nH]c(C)c(-c3ccccc3)c2n1	-8.5	0	-39	1	-1.1%	6%	-9
O=C(COc1ccc(Cl)cc1)N1CCN(C(=O)c2cccs2)CC1	10	8	-7	-18	-0.6%	-11%	-10
O=C(Nc1cccc(Cl)c1)c1ccc2c(c1)SC1=NS(=O)(=O)CCN12	-3.1	2	-5	2	-1.8%	?	-3
O=C(NCCN1CCOCC1)c1ccc(-c2ccccc2)cc1	-1.8	2	-12	4	-0.8%[38.3 µM]	-30%	-17
COc1ccc2[nH]c(C)c(CCNC(=S)Nc3cc(C)cc(C)c3)c2c1	13	-21	-8	-5	1.5%	16%	-4
CC(C)C[C@@H](CN)NC(=O)c1nc[nH]c1C(=O)N[C@@H](Cc1ccccc1)C(=O)CNC[C@H](C)NC(=O)c1nc[nH]c1C(=O)N[C@@H](CC(C)C)C(=O)O	-2.2	-19	-6	-12	0.9%	/	/
COc1ccc(-c2noc3c2-c2nc(C4CCCCC4)sc2CC3)cc1	-0.9	1	-1	3	1.9%	-21%	-13
CC1=C(C(=O)N2CCOCC2)CC(CC(=O)NC2CC2)C(=O)N1Cc1ccc(C(C)(C)C)cc1 (centres undefined)	-3.4	9	3	-5	3.4%	/	/
CN(CCc1ccccc1)C(=O)c1cc(COc2ccc(F)cc2Cl)on1	-2.2	6	-11	5	0.1%	8%	0
Cc1ccc(C(=O)COC(=O)CCC(=O)Nc2cc(Cl)ccc2Cl)cc1[N+](=O)[O-]	-16	6	-35	13	-3.1%	18%	-3

Only TRPV1 PAM, Sfp inh and PINK1 expr mod, for some of the entries so far:
| compound | TRPV1 PAM | Sfp inh | PINK1 expr mod |
| --- | --- | --- | --- |
| CN(CCc1ccccc1)C(=O)c1cc(COc2ccc(F)cc2Cl)on1 | 0 | 8% | 0.1% |
| CC1(C)CC(=O)C(N=Nc2cc(Cl)c(Cl)c(Cl)c2)=C(O)C1 | 7 | -1% | 1.3% |
| Cc1ccc(C(=O)COC(=O)CCC(=O)Nc2cc(Cl)ccc2Cl)cc1[N+](=O)[O-] | -3 | 18% | -3.1% |

Next section
SMILES	D2 ag	Six1-Eya2 blk	D2 PAM	CtBP-E1A inh	PINK1 expr mod	Sfp inh	TRPV1 PAM
Cc1ccc(CN2CCC(Oc3ccc(C(=O)NCc4ccccn4)cc3)CC2)o1	-5.7	6	-12	5	-1.6%	6%	-7
CCN(C[C@H]1N[C@@](C)(C(=O)OC)[C@H]2C(=O)N(C)C(=O)[C@@H]12)C(=O)c1ccc(C)cc1	0.4	11	2	2	1.7%	/	/
Cc1c(NC(=O)CSc2nnc(COc3ccccc3)n2-c2ccccc2)c(=O)n(-c2ccccc2)n1C	-3.4	2	-18	1	-0.4%	11%	5
COc1cc(OC)c(C2=NOC(C(=O)Nc3c(C)n(C)n(-c4ccccc4)c3=O)C2)cc1Cl (centres undefined)	-3.8	-7	0	11	0.4%	20%	-3
COc1cc(NC(=O)C2CCCCC2)c(OC)cc1NC(=O)CN1CCCCC1	-3.7	-15	5	-8	1.7%	-2%	5
CN(C)c1cc2c3ccccc3n(C)c2cc1N	-2.8	-26	-9	-21	-0.1%	/	/
Cc1nc2c3ccccc3nc(SCC(=O)N3CC(C)CC(C)C3)n2n1 (centres undefined)	-3.2	-4	-5	16	3.1%	11%	9
Cc1ccc(OCc2nnc(SCC(=O)Nc3ccc4c(c3)OCCO4)n2Cc2ccco2)cc1	2.1	-3	-13	-11	-0.8%	?	12
COc1cc(C(=O)OCn2nnc3ccccc3c2=O)cc(OC)c1OC	-1.0	5	-7	-1	4.2%	20%	-3
S=C(Nc1ccc(Cc2ccncc2)cc1)Nc1cccc(Cl)c1	0.0	3	-6	8	2.2%	-13%	4
O=C(COC(=O)c1ccccc1[N+](=O)[O-])NCCCc1ccccc1	1.2	1	-5	/	0.3%	-1%	-3
CCn1cc(C(=O)Nc2ccc(F)c(F)c2)cn1	-3.1	9	-17	-16	-2.0%	4%	-14
CC1Oc2cc3oc4c(O)c(O)ccc4c(=O)c3c(O)c2C1(C)C (centres undefined)	3.3	-8	2	1	?	/	/
CCCCn1c(SCC(N)=O)nc2c(sc3ccccc32)c1=O	0.7	5	-6	-2	/	-23%	2
COC(=O)c1sc2ccccc2c1-n1cccc1C(=O)C(=O)Nc1ccc(F)cc1	-2.6	-11	-28	-8	0.5%	-23%	-3

Ordered by SMILES length (rising): some entries from above
SMILES	D2 ag	Six1-Eya2 blk	D2 PAM	CtBP-E1A inh	PINK1 expr mod	Sfp inh	TRPV1 PAM
CN(C)c1cc2c3ccccc3n(C)c2cc1N	-2.8	-26	-9	-21	-0.1%	/	/
COc1ccc(-c2noc3c2-c2nc(C4CCCCC4)sc2CC3)cc1	-0.9	1	-1	3	1.9%	-21%	-13
CN(CCc1ccccc1)C(=O)c1cc(COc2ccc(F)cc2Cl)on1	-2.2	6	-11	5	0.1%	8%	0
Cc1ccc(C(=O)COC(=O)CCC(=O)Nc2cc(Cl)ccc2Cl)cc1[N+](=O)[O-]	-16	6	-35	13	-3.1%	18%	-3

Next section:
SMILES	D2 ag	Six1-Eya2 blk	D2 PAM	CtBP-E1A inh	PINK1 expr mod	Sfp inh	TRPV1 PAM
CCc1c(C)nc(SC(C(=O)O)c2ccccc2)c(C#N)c1C (centres undefined)	-0.4	13	0	-4	1.6%	14%	15
N#Cc1nc(COc2ccccc2)oc1N1CCN(Cc2ccccc2)CC1	-1.2	?	3	-21	-2.8%	12%	4
Cc1ccc(S(=O)(=O)/N=C2/NC(=O)/C(=C\c3cc(Br)cc(Br)c3O)S2)cc1	-4.7	-29	-7	?	2.7%	?	-21
COc1ccc(C(=O)CCC(=O)Nc2ccc(N3CCCCC3)cc2)cc1OC	4.8	-7	4	11	-0.5%	1%	-8
CCOCCCNC(=O)Cc1cc(=O)[nH]c(=O)[nH]1	-4.9	2	-4	0	0.4%	9%	0
Cc1cccc(NC(=O)[C@@H]2CCCN2C2=NS(=O)(=O)c3ccccc32)c1C	1.7	-1	-4	-2	8.8%	/	7
O=C(Nc1ccc(N2CCCC2)cc1)c1cccc(Cl)c1Cl	2.8	1	-5	-3	2.1%	10%	-27
COc1ccc(S(=O)(=O)N2CCC(C(=O)N3CCN(C)CC3)CC2)cc1Cl	-2.2	0	-1	2	-1.1%	9%	2
Cc1c(NC(=O)Nc2ccc3c(c2)OCO3)cccc1[N+](=O)[O-]	-4.0	-14	-14	-19	1.4%	-2%	-12
Cc1cc(Br)ccc1NC(=O)C1C2CCC(O2)C1C(=O)O (centres undefined)	-2.3	3	-2	5	8.8%	6%	14
CCCCn1c(N)c(N(Cc2ccccc2OC)C(=O)C(C)Oc2cccc(Cl)c2)c(=O)[nH]c1=O (centres undefined)	-2.0	0	-12	0	1.4%	/	/
O=C1[C@H]2[C@H](ON3CCCC[C@H]23)C(=O)N1c1cccc(C(F)(F)F)c1	-4.9	2	-2	-2	4.1%	15%	3
O=C(c1cccs1)N1CCCC1	0.4	5	2	-2	4.2%	22%	-8
CC1(C)Cc2c(sc3c2c(=N)n(Cc2ccco2)c(=O)n3CC(=O)Nc2ccc(Cl)cc2)CO1	-5.8	-15	2	-5	-2.5%	6%	4
CC(C)(C)C(=O)Nc1c(Br)c(C2CC2)nn1-c1ccccc1	-3.8	0	-7	-4	-0.7%	17%	17
CN(c1ccccc1C(=O)O)S(C)(=O)=O	-1.4	2	-2	4	-1.3%	-4%	-1
O=C(Nc1cc(SCC(O)CO)cc([N+](=O)[O-])c1)c1ccc(-n2cnnn2)cc1 (centres undefined)	0.1	-11	-7	-8	1.4%	-1%	4
Cc1cc(C)n(-c2ccc(F)cc2CN2CCN(C3CCCC3)C(CCO)C2)n1 (centres undefined)	-4.3	2	-8	6	0.1%	5%	8
CC1CCCN(C(=O)CN2C(=O)c3ccccc3S2(=O)=O)C1 (centres undefined)	-3.4	-7	-19	11	0.1%	/	8
CC12CCC3c4ccc(O)cc4CCC3C1CC(=NO)C2O (centres undefined)	1.9	4	-11	-15	-0.1%	/	/
COc1ccc(Cn2nnnc2C(c2cc3ccc(OC)cc3[nH]c2=O)N2CCC(C)CC2)cc1 (centres undefined)	-2.7	-2	-12	5	2.1%	40µM*	2
Cn1cc(CN2CCC(n3nccc3NC(=O)CCc3ccccc3)CC2)cn1	-0.9	1	5	9	-1.3%	19%	3
CCn1c2ccccc2c2cc(NS(=O)(=O)c3ccc(C)cc3)ccc21	-2.7	-12	-3	-12	1.6%	4%	0
COCCNC(=O)c1ccc(C2SCC(=O)N2CCc2ccccc2)cc1 (centres undefined)	3.8	-1	0	4	1.7%	13%	1
Cc1ccc2nc3c(cc2c1)c(NC(=O)C1CCCO1)nn3CC(C)C (centres undefined)	-3.7	31	-9	26	7.6%	6%	-16
CN(CC(=O)Nc1cccc(F)c1)C(=O)Cn1c(=O)cnc2ccccc21	-6.2	-1	-22	9	1.7%	/	2
COc1ccc(CC(=O)NCc2n[nH]c(=S)n2-c2cccc(Cl)c2)cc1	6.6	3	-10	1	0.8%	14%	2
Cc1ccc(CCN2CC(C(=O)NCCCN3CCCCC3)CC2=O)cc1 (centres undefined)	-2.2	4	-9	1	-0.6%	26%	7
COc1ccc(-c2ccc(SCC(=O)Nc3nnc(C)s3)nn2)cc1	2.0	0	-8	/	-1.1%	0%	7
Cc1cc(C(C)(C)C)ccc1OCCN1CCCC1	-5.4	-2	-5	3	1.0%	-13%	0
Cc1ccccc1Oc1nc2ccccc2n2cnnc12	6.1	-1	-7	0	2.0%	12%	22
O=C(Nc1ccc(CN2CCOCC2)cc1)c1ccc(-c2cccc(Cl)c2)o1	-3.8	-8	-17	-6	-2.4%	-26%	/

Rows are unselected; any-hit rate near 3.7%.
